HSD17B inh: qHTS Assay for Inhibitors of HSD17B4, hydroxysteroid (17-beta) dehydrogenase 4. 3-hydroxyacyl-CoA dehydrogenase type-2 (Homo sapiens), Q99714. 75,000 compounds, 7.6% hits. Potency, µM (top dose mostly 57.1 µM), inactives show top-dose activity change, negative = inhibition, hits mostly inhibitors. recombinant HSD17B10, NADH fluorescence kinetic; many of its hits are not listed in these tables. AID 893, 2007; active = well fitted inhibition curve with a large enough effect; inconclusive = small, poorly fitted or top-dose-only effect; inactive = no such curve, though single readings can be large or run the other way;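 note: the protocol describes HADH2 (HSD17B10) and not the HSD17B4 of the title; nearly all actives have a fitted effect of over 70% in size; most hits overshoot -100% by far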
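Enzyme plus compound, 15 min room temperature; substrate mix added (NAD+ 1 mM, beta-hydroxybutyryl-CoA 90 uM final); plates read kinetically for NADH fluorescence. HADH2 was His-tagged, E. coli-derived, 20 nM.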
The depositor's hits bear a star; ? = inconclusive; & = joins results of further samples; [ ] = remark or other dose. % is set by controls: 0 for no effect and ±100 for the full control effect; potency is the fitted concentration of half-maximal effect. This is a subset; count on the stated rates, not on these rows.

SMILES	HSD17B inh
CCOC(=O)N1CCC(O)(c2cc(C)c(C)cc2C)CC1	-3.9%
CCc1nnc(NC(=O)CN2CCC(O)(c3ccccc3OC)CC2)s1	5.1%
COc1ccc(-n2c(Cc3cccs3)nnc2SCC(=O)Nc2ccc3c(c2)OCCO3)cc1	1.6%
Cc1noc(C)c1C(=O)Nc1sc(C)c(-c2ccccc2)c1C#N	-4.3%
Cn1c(NC(=O)c2ccccc2C(F)(F)F)cc(=O)n(C)c1=O	-7.2%
CSCC[C@H](NC(=O)NCCC1=CCCCC1)C(=O)O	11.9%
Cc1ccc(N2CC(C(=O)NC3=NCCS3)CC2=O)cc1 (stereo not drawn)	6.1%
CCCCNC(=O)c1cc(-c2ccc(OC)c(OC)c2)on1	0.3%
CCCCNC(=O)CCCn1c(=S)[nH]c2cc3c(cc2c1=O)OCO3	-9.2%
CCN(CCO)Cc1cn[nH]c1-c1ccc(C)c(C)c1	4.2%
CC1CCCN(C(c2ccccc2)c2sc3ncnn3c2O)C1 (stereo not drawn)	6.1%
Cc1cc(Nc2cccc(Cl)c2)n2ncnc2n1	-6.4%
Cc1ccc2c(CC(=O)Nc3ccc(N4CCN(C)CC4)cc3C)coc2c1	14.2%
O=C(Cn1c(-c2ccco2)nc2ccccc21)N1CCCCC1	25.1µM*
COc1ccccc1NC(=O)c1ccc(NS(=O)(=O)c2c(C)noc2C)cc1	8.6%
Cc1nc(Nc2nc(-c3ccccc3)cc(=O)[nH]2)nc2ccccc12	-7.4%
COc1ccc(C(=O)COC(=O)CCCn2c(=O)oc3ccccc32)cc1	-4.1%
CCOc1ccccc1Oc1coc2cc(O)ccc2c1=O	25.1µM*
O=C(c1cnc2sccn2c1=O)N1CCCc2ccccc21	-10.4%
COc1ccc2nc(NC(=O)C3CCCN(S(=O)(=O)c4cccs4)C3)sc2c1 (stereo not drawn)	-10.1%
O=C(CCc1ccccc1)Nc1ccc(NC(=O)C2CC2)nc1	6.5%
O=C(c1csnn1)N1CCC[C@@]2(CCN(c3ccccc3)C2)C1	3.8%
Cn1c(=O)c2c(n(C)c1=O)=NC1(CCCCC1)N=2	?
CCOC(=O)c1sc(N)nc1-c1ccccc1	-9.7%
O=C(CC1CCCCC1)OCn1nnc2ccccc2c1=O	-7.8%

The results go on.
SMILES	HSD17B inh
Cc1[nH]c2ccccc2c1NC(=O)CN1CCN(Cc2ccc3c(c2)OCO3)CC1	2.9%
CCCCCCNC(=O)Nc1ccc(S(=O)(=O)Nc2ccc(CCNC[C@H](O)COc3ccc(O)cc3)cc2)cc1	-9.3%
CCc1ccc(OC)c(S(=O)(=O)NCCOc2ccccc2)c1	1.6%
Cc1cc(C)c2[nH]c(=O)c(C(c3nnnn3Cc3ccc4c(c3)OCO4)N3CCC(C)CC3)cc2c1 (stereo not drawn)	21.3%
COc1ccc(C[C@H](N)C(=O)N[C@@H]2[C@H](O)[C@H](n3cnc4c(N(C)C)ncnc43)O[C@@H]2CO)cc1	-0.7%[25.6 µM]
COc1ccc(Cl)cc1-n1c(=S)sc2c(=O)[nH]c(SCC(=O)NCC3CCCO3)nc21 (stereo not drawn)	-2.5%
N#Cc1nc(-c2ccc(Cl)cc2)oc1NCCc1ccccn1	0.794µM*
Nc1nnc(COc2cccc(C(F)(F)F)c2)s1	-5.2%
CC(=O)c1ccc(N2C(=O)NC3(CCCCC3)C2=O)cc1	9.0%
CC(C(=O)Nc1sccc1C(N)=O)N1C(=O)C2CC=CCC2C1=O (stereo not drawn)	1.6%
CCOc1ccc(C(C#N)N2CCOCC2)cc1OC (stereo not drawn)	13.0%
COC(=O)CCC(=O)c1oc2ccc(Cl)cc2c1NC(=O)CCCN1C(=O)c2ccccc2C1=O	?
COc1ccc(OC)c(S(=O)(=O)Nc2ccc3oc4c(c3c2)C(=O)CCC4)c1	-7.5%
Cc1nnc(NC(=O)c2ccc(C)c(S(=O)(=O)N3CCCCCC3)c2)s1	1.6%
CCOC(=O)CNC(=O)CSc1ncnc2c1cnn2-c1ccc(Cl)cc1	-1.2%
COc1ccc2cc(C(=O)N3CCOCC3)sc(=O)c2c1OC	4.6%
COC(=O)c1[nH]c2cc(OC)ccc2c1NC(=O)CCN1CCN(Cc2ccc3c(c2)OCO3)CC1	?
CC1NC(=O)N(C)C2NC(=O)N(C)C(c3ccccc3)C12 (stereo not drawn)	4.2%
Cc1cccc(NC(=O)c2ccc(NS(=O)(=O)c3c(C)noc3C)cc2)c1	13.8%
Cc1ccc(N=C2NC(=O)CS2)c(C)c1	6.7%
COc1ccc(C(=O)N2CCN=C2SCc2cccnc2)cc1OC	5.2%
CCCCn1nnnc1NCc1ccc(OC)c(OC)c1OC	2.2%
C=CCn1c(CNC(=O)CCC)nc2ccccc21	2.1%
CNS(=O)(=O)c1cccc(C(=O)NCC(c2cccs2)N(C)C)c1 (stereo not drawn)	6.4%
CCOC(=O)Nc1ccc2c(C)cc(=O)oc2c1	25.1µM*

Reprinted from the part before: five compounds, then new ones.
SMILES	HSD17B inh
COc1ccc(C(=O)N2CCN=C2SCc2cccnc2)cc1OC	5.2%
CCCCn1nnnc1NCc1ccc(OC)c(OC)c1OC	2.2%
C=CCn1c(CNC(=O)CCC)nc2ccccc21	2.1%
CNS(=O)(=O)c1cccc(C(=O)NCC(c2cccs2)N(C)C)c1 (stereo not drawn)	6.4%
CCOC(=O)Nc1ccc2c(C)cc(=O)oc2c1	25.1µM*
O=C1[C@@H]2[C@@H]3C=C[C@H]([C@@H]2C(=O)N1CN1CCSCC1)[C@@H]1[C@@H]2C(=O)N(CN4CCSCC4)C(=O)[C@@H]2[C@H]31	7.4%[11.4 µM]
O=C(C1COc2ccccc2O1)N1CCn2c(nc3ccccc32)C1 (stereo not drawn)	1.9%
O=C(CSc1nnc(-c2cccnc2)n1Cc1ccco1)c1ccc2ccccc2c1	8.5%
COc1ccc(-c2nnc(-c3ccc(N)cc3)o2)cc1	25.1µM*
Cn1nc(-c2ccc(Cl)cc2)c2cc(C(=O)N3CCCC3)sc21	-7.9%
COC(=O)c1cc(=O)c2ccc(OC)cc2o1	-0.3%
Cc1ccc(N=Cc2nc(-c3ccco3)oc2O)cc1	-0.4%
COc1ccc(Cc2nnc(SC)[nH]c2=O)cc1OC	-0.1%
CC1Cc2ccccc2N1C(=O)Cn1nnc(-c2ccccc2NC(=O)C2CCC2)n1 (stereo not drawn)	11.3%
COC(=O)c1cc(Br)c(=O)n(-c2ccccn2)c1	18.8%
C=CCNC(=O)C1CCCN(S(C)(=O)=O)C1 (stereo not drawn)	8.9%
CCOc1ccccc1C(=O)N(CCC(=O)OC)c1ccccn1	1.6%
CC(C)Cn1c(N)c(C(=O)COC(=O)c2cc(C(F)(F)F)nc3ccccc23)c(=O)n(C)c1=O	?
CC=O	-2.9%
CCNS(=O)(=O)c1ccc(NC(=O)c2cccnc2)cc1	12.7%
O=S(=O)(c1cccc(S(=O)(=O)N2CCC(n3nnc4ccccc43)CC2)c1)N1CCCCC1	3.8%
COc1ccccc1C(=O)Nc1ccc2c(c1)nc(CCNC(C)=O)n2C	109.4%[activator]
CCOCC(=O)Nc1cccc(Br)c1	-2.5%
CN1C(=O)CC(N2CCN(CCN=CC3=C(O)CC(C)(C)CC3=O)CC2)C1=O (stereo not drawn)	8.9%
COCCCNC(=O)c1cc(C)nc2ccc(F)cc12	-5.6%
CC(=O)OC1c2ccccc2C(=O)N1Cc1ccccc1Cl (stereo not drawn)	8.9%
COC(=O)NC(c1ccccc1)[C@]1(C(C)=O)CCCC1=O (stereo partly drawn)	3.2%[11.4 µM]
COc1ccc(OC)c(S(=O)(=O)N2CCN(c3c(C)cccc3C)CC2)c1	-1.8%
CC(C)c1nnc(NC(=O)CC(=O)Nc2ccccc2C(=O)O)s1	-19.5%
COCCn1c(=O)c(-c2ccc(Cl)cc2)nc2cnc(OC)nc21	25.1µM*

The final 3 compounds of the part above open the next one.
SMILES	HSD17B inh
COc1ccc(OC)c(S(=O)(=O)N2CCN(c3c(C)cccc3C)CC2)c1	-1.8%
CC(C)c1nnc(NC(=O)CC(=O)Nc2ccccc2C(=O)O)s1	-19.5%
COCCn1c(=O)c(-c2ccc(Cl)cc2)nc2cnc(OC)nc21	25.1µM*
Cc1cccc(OCC2=NS(=O)(=O)c3ccccc3N2)c1	-2.2%
Cc1cccc(N2CCN(C(=O)c3ccc(CS(=O)(=O)c4ccccc4C)o3)CC2C)c1 (stereo not drawn)	-7.5%
CCC(=O)N1CCc2cc(S(=O)(=O)NCCCN3CCN(Cc4ccccc4)CC3)ccc21	8.4%
Cn1cccc1Cc1nnc(SCC(=O)NC2CCCCC2)n1-c1ccc(F)cc1	11.9%
CC1CCCN(C(=O)CN2C(=O)c3ccccc3C2=O)C1 (stereo not drawn)	-5.3%
O=c1c2ccccc2nc2n1CCCCN2	25.1µM*
Cc1cc(NC(=O)CCC(=O)N(c2ccc(F)cc2)C(C(=O)NC2CCCC2)c2ccncc2)no1 (stereo not drawn)	13.6%
CCOC(=O)CSc1nnc(CSc2nc(N)c3c(C)c(C)sc3n2)n1-c1ccccc1	-18.2%
CCCOCC1CC2(SC(=Nc3ccc(C)cc3)NC2=O)C(=O)O1 (stereo not drawn)	5.9%
N#CC1=C(SCc2ccccc2)NC(=O)CC1c1ccc(O)cc1 (stereo not drawn)	?
CC(C)(C)C1CCc2nc(NC(=O)Cc3cn4ccsc4n3)sc2C1 (stereo not drawn)	4.1%
COc1ccc(NC(=O)C(c2ccc(OC)cc2)N(C)C(=O)c2cnccn2)cc1 (stereo not drawn)	-15.8%
COc1ccc(S(=O)(=O)Cc2ccc(C(=O)NCc3ccc(F)cc3)o2)cc1	2.4%
Cc1nc(NC(=O)CCC(=O)O)sc1C(=O)N(C)C	-5.0%
CN(C)S(=O)(=O)c1ccc2c(c1)c(=O)c(C(=O)N1CCN(c3ccccn3)CC1)cn2C	-11.0%
O=C(Nc1c(C(=O)N2CCCC2)cnn1-c1ccccc1)c1cccc(F)c1	-0.3%
O=C(c1cccs1)N(CCO)Cc1cc2cc3c(cc2[nH]c1=O)OCCO3	?
Nc1nnc(SCC(=O)N2CCN(c3ccccc3)CC2)s1	8.8%
CO/N=C(/C(=O)NC1C(=O)N2C(C(=O)O)=C(CSc3nc(=O)c(O)nn3C)CSC12)c1csc(N)n1 (stereo not drawn)	-7.9%&-21.8%
O=C(NCc1ccccn1)c1cn(Cc2ccccc2)nn1	0.3%
C=C(C)c1ccc(C(C)(C)NC(=O)N2CCN(C)CC2)cc1	-1.7%
O=C(O)CCCCC1SCC2NC(=O)NC21 (stereo not drawn)	1.1%
Cc1ccc2cc3c(NC(=O)c4cccnc4)nn(C)c3nc2c1	-7.7%
CC(=O)N1CCc2cc(S(=O)(=O)NCCCOC(C)C)ccc21	8.7%
O=C(c1nnc(-c2ccncc2)o1)c1ccccc1Cl	1.0%

Next records
SMILES	HSD17B inh
CCCCn1c(N)c(N(CCC(C)C)C(=O)CSc2nnc(C)s2)c(=O)[nH]c1=O	9.3%
CCCCS(=O)(=O)Nc1ccc(Cc2ccncc2)cc1	4.9%
O=C(Nc1cccc2ncccc12)c1cc2ccccc2o1	-10.6%
N#C/C(=C\c1c(N2CCOCC2)nc2ccccn2c1=O)S(=O)(=O)c1ccccc1	-5.5%
COc1ccc(NS(=O)(=O)c2ccc(NS(C)(=O)=O)cc2)cc1	-8.2%
COc1ccccc1NC(=O)CCn1c(=O)sc2ccccc21	9.2%
CN(C)c1oc(-c2ccccc2Cl)nc1C#N	25.1µM*
COc1cc(C(=O)N(Cc2ccccn2)CC2CCCO2)cc(OC)c1OC (stereo not drawn)	4.7%
CCOC(=O)C1CCCN(S(=O)(=O)c2cccc3cccnc23)C1 (stereo not drawn)	2.7%
c1cn(-c2ncnc3ccc(-c4ccoc4)cc23)cn1	3.3%
COc1ccc(CC(NC(C)=O)C(=O)NC2CCN(C(=O)NCc3ccccc3)CC2)cc1OC (stereo not drawn)	-16.4%
CCOc1ccccc1C(=O)NCC(=O)OCC(=O)c1ccc2c(c1)OCCO2	4.5%
CC(C)OC(=O)CCC(=O)Nc1nc2ccccc2s1	-1.2%
CC(C)CN1CC[C@@]2(CCCN(C(=O)c3ccco3)C2)C1	4.3%
CC(=O)Nc1cccc(C(=O)N2CCN(Cc3ccccc3)CC2)c1	13.3%
O=C(NCc1ccco1)c1c(O)c2cccc3c2n(c1=O)CCC3	?
CCCCc1cc(O)c(CCCC)c(O)c1	-1.4%
N#Cc1cccc(NC(=O)N2CCCC3(CCN(C(=O)c4ccco4)CC3)C2)c1	-20.6%
O=C1CCCC=C1[C@@H](O)CCOCc1ccccc1	5.4%[11.4 µM]
COc1ccccc1NC(=O)c1nnn(CC(=O)Nc2ccccc2)c1N	?
CC(=O)N1CCC[C@@]2(CCN(c3ncccn3)C2)C1	?
C#CCOC(=O)CCCC(=O)Nc1ccccc1OC	11.9%
O=C(Nc1ccc2c(c1)OCO2)N1CCN(c2ncccn2)CC1	0.2%
COc1ccccc1-c1ccc2ncnc(NCc3cnc(C)cn3)c2c1	?
C=CCNc1ncnc2c1cnn2-c1cccc(C)c1	25.1µM*
COCCCNC(=O)c1cc2c(-c3ccc(Cl)cc3)nn(C)c2s1	31.6µM*
CCOC(=O)C1CCCN(Cc2cc(Br)c(OC)cc2OC)C1 (stereo not drawn)	8.1%
CN1CCN(c2nc(-c3cccc(NS(C)(=O)=O)c3)nc3ccccc23)CC1	5.5%
CCOC(=O)CNC(=O)CSc1nnc(SCC(=O)NCC(=O)OCC)s1	6.2%

Screening data as filed in PubChem.
